Screening data: PubChem BioAssay, several laboratories
Mtb H37Rv: M. tuberculosis H37Rv growth inhibitors, H37Rv strain (AID 1626). M. tuberculosis H37Rv growth inhibition; higher % means a stronger effect. 220,000 tested, 0.95% active. one-dose inhibition, % at 10 µM; IC50 in µM for titrated hits;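 active means confirmed in a dose series; inconclusive means inhibition above 80% but not taken into the dose series; inactive means below 80% or under 30% at every dose of the series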;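 further: bacteria incubated seven days before Alamar blue readout; 0% = bacteria only wells and 100% = bacteria with antibiotic wells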
Arbovirus inh: antivirals against arbovirus infection, primary screen, cell-based, full library, 10K replicate subset; arbovirus infection cell-based antiviral screen; inhibition, % at 10 µM; 200,000 tested, 0.37% active; AID 1251, 2008;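 active means inhibition from about 30%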;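 further: bluetongue infection of BSR cells; cell survival read as ATP light after 72 h; 0% = infected wells without compound and 100% = uninfected wells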
YopH PTP inh: YopH tyrosine phosphatase inhibitors, primary screen, biochemical, fluorescence Ex485/Em525 | AID 898, 2007 | 140,000 tested, 0.16% active | inhibition, %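 (about 10 µM by stock and volumes)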 | YopH tyrosine phosphatase [Yersinia enterocolitica];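 active means inhibition of 50% or more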;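 further: controls were vehicle for no effect and minimum signal wells for full effect; inactives centre near -20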
Mtb betalactam: beta-lactam sensitization of Mtb H37Rv, H37Rv; M. tuberculosis H37Rv growth with meropenem, percent inhibition; hits of this screen are not shown here; inhibition, % at 25 µM; 330,000 tested, 0.27% active;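 active means about 74% or more and at least 40 points above the plate without the antibiotic, then above 30% in a dose series; inconclusive means first-round hits that could not be retested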;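 further: growth measured after seven days incubation then overnight dye step; 0% = bacteria only wells and 100% = bacteria with antibiotic; twin plates without the antibiotic show which effects depend on it; some results filed as inactive read as strong as hits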
RecA splice inh: Mtb RecA intein splicing inhibitors, primary screen, biochemical, fluorescence, HTS; cell-free RecA intein splicing; Protein RecA (Mycobacterium tuberculosis (strain ATCC 25618 / H37Rv)), P9WHJ3; 290,000 tested, 0.75% active; inhibition, %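 (about 9 µM by stock and volumes)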; in the data active means inhibition above about 30%; inconclusive means no clear call, values can overlap the other calls;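 further: 0% = vehicle wells and 100% = reference inhibitor control wells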
Target sequence (P9WHJ3 whole entry, looked up, canonical isoform): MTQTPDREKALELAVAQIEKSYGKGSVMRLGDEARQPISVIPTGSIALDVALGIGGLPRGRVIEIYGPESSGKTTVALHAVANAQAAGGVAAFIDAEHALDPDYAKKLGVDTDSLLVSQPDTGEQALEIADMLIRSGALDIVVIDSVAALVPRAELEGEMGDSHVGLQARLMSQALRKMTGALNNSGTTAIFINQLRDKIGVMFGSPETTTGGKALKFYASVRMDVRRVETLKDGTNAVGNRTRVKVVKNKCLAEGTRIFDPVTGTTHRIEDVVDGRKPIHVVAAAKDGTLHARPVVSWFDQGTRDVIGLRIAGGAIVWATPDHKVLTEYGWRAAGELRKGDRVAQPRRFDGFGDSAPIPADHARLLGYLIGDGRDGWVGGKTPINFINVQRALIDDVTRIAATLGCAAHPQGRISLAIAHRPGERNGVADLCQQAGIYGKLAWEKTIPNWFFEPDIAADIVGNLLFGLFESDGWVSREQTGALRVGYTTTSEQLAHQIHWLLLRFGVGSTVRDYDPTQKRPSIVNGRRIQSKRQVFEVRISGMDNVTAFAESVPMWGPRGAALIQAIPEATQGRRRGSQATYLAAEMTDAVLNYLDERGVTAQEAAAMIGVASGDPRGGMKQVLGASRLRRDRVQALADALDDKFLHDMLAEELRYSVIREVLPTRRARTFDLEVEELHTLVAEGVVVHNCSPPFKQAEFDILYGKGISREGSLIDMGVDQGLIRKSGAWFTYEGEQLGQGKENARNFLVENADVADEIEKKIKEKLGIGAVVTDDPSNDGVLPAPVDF
* = called active by the depositor; u = inconclusive; x = no result given. Only part of the results is shown (hit frequency here may not be typical).

Order of values: YopH PTP inh, Arbovirus inh, Mtb H37Rv, RecA splice inh, Mtb betalactam
> CC(=NCc1ccc2c(c1)OCO2)c1c(O)n(-c2ccc(C)cc2)c(=O)[nH]c1=O
→ x, x, -4%, -2.6, -2
> O=C(CN1C(=O)c2cccnc2Oc2ccc(Cl)cc21)N1CCCCCC1
→ x, x, x, -2.8, u
> COc1ccc2[nH]c(=O)c(CN(C(=O)c3ccccn3)C3CCCCC3)cc2c1
→ -25, -2, -4%, -0.8, -2
> CCOC(=O)c1sc(NC(=O)c2ccc(Br)o2)cc1C
→ -19, -13, 3%, 2.0, 8
> Cn1c(CC(=O)Nc2ccccc2F)nnc1SCC(=O)NC1=NCCS1
→ x, x, x, 4.7, -6
> COc1ccccc1CNC(=O)c1ccc2ccccc2n1
→ x, x, x, 3.6, 1
> COc1ccc(-c2csc(NC(=O)CSc3nc4ccccc4c(=O)[nH]3)n2)cc1
→ x, x, x, -2.0, -10
> CC1(C)C/C(=N\O)c2cc3c(nc2C1)CCCC3
→ -21, 4, -2%, 2.5, 0
> CCN(CCn1cccn1)Cc1c(C(=O)N2C[C@@H](C)O[C@@H](C)C2)nc2ccc(Cl)cn12
→ x, 3, 0%, -0.4, -4
> O=C1CC(O)(c2ccccc2)C(c2ccccc2)=C1c1ccccc1 (stereo not drawn)
→ -11, -3, 13%, 15, 9
> CN(Cc1ccccc1)c1ncnc(N)c1[N+](=O)[O-]
→ x, 14, 2%, 1.3, 2
> CC(C)CNC(=O)COC(=O)Cc1ccc(Cl)cc1
→ x, 6, 1%, 0.5, 6
> COc1ccc(NS(=O)(=O)CC23CCC(CC2=O)C3(C)C)cc1 (stereo not drawn)
→ -12, 13, 9%, 0.5, x
> O=C(Cc1ccccc1)n1nc(-c2ccco2)nc1SCc1ccccc1
→ -24, 6, 5%, 1.4, -2
> COc1cc(C2C(C(=O)c3ccc(C)o3)=C(O)C(=O)N2c2cc(C)on2)cc(OC)c1OC (stereo not drawn)
→ x, x, x, -0.4, -1
> Cc1cc(C)c(NC(=O)CCCN2CCOCC2)c(C)c1
→ 25, 1, -9%, -1.1, -11
> COc1ccc(NC2CC(=O)N(CCc3ccccc3)C2=O)cc1 (stereo not drawn)
→ -23, -4, 10%, 0.8, -9
> COc1ccc(CCNC(=O)CN(c2cccc([N+](=O)[O-])c2)S(C)(=O)=O)cc1OC
→ x, 17, 12%, -0.3, -2
> COc1ccc(N2CCN(S(=O)(=O)c3c(C)nc4sccn4c3=O)CC2)cc1
→ x, x, x, -1.0, 1
> O=C(COc1ccc(/C=N/NS(=O)(=O)c2ccccc2)cc1)Nc1ccccc1
→ -42, 16, x, -1.1, 1

Two of these compounds, reformatted:
> COc1ccc(N2CCN(S(=O)(=O)c3c(C)nc4sccn4c3=O)CC2)cc1
  YopH PTP inh = x | Arbovirus inh = x | Mtb H37Rv = x | RecA splice inh = -1.0 | Mtb betalactam = 1

> CCN(CCn1cccn1)Cc1c(C(=O)N2C[C@@H](C)O[C@@H](C)C2)nc2ccc(Cl)cn12
  YopH PTP inh = x | Arbovirus inh = 3 | Mtb H37Rv = 0% | RecA splice inh = -0.4 | Mtb betalactam = -4

Remaining list, next part
Order of values: YopH PTP inh, Arbovirus inh, Mtb H37Rv, RecA splice inh, Mtb betalactam
> COc1ccc(C2C(C#N)=C(C)NC(C)=C2C#N)c(OC)c1
→ x, -2, -4%, -0.4, 5
> O=C(COc1ccc(C(=O)NCc2cccnc2)cc1)Nc1cccc(C(F)(F)F)c1
→ x, x, x, 0.5, -2
> COc1ccc(-c2cc(=Nc3cccc(C(=O)O)c3)c3cc(C)ccc3o2)cc1
→ x, 16, 18%, 10, 4
> Cc1ccccc1C(=O)Oc1ccccc1C(=O)N1CCOCC1
→ -14, 4, -1%, -1.9, -1
> CCOC(=O)N1CCN(Cc2nc(Cc3cccc(F)c3)no2)CC1
→ x, 5, -1%, 0.9, 0
> Cc1ccc(C2=Nn3c(COc4ccc(Cl)cc4)nnc3SC2CC(=O)O)cc1 (stereo not drawn)
→ x, x, x, -1.3, 0
> O=C(Nc1ccc(F)cc1)c1ccc(C(=O)N2CCOCC2)cc1
→ x, x, x, -2.7, 1
> COc1cc(C(=O)Nc2nc3ccc(S(C)(=O)=O)cc3s2)cc(OC)c1C
→ x, x, -1%, -0.4, 8
> N/C(=N\OC(=O)c1cc([N+](=O)[O-])ccc1Cl)c1ccccn1
→ x, x, 2%, 0.5, 7
> CCOC(=O)c1[nH]c2ccccc2c1NC(=O)CC
→ -50, -4, x, -0.8, 0
> Cc1ccc(-c2ccc(C(=O)NCCCNC(=O)c3cnccn3)o2)cc1Cl
→ x, x, x, 1.8, 2
> CC(Oc1ccc(Cl)cc1Cl)C(=O)Nc1ncccn1 (stereo not drawn)
→ -21, -9, -4%, 2.5, 37
> Cc1ccccc1SCc1noc(C(=O)NC(C)C)c1C(=O)O
→ -8, 13, -4%, -2.6, -1
> CCOc1ccccc1NC(=O)COc1coc(CN2CCc3ccccc32)cc1=O
→ x, x, x, -1.3, 54
> COc1ccc(-c2cc(C(=O)N3CCc4ccccc4C3)no2)cc1
→ x, 0, -3%, 5.0, -3
> COc1ccccc1C(=O)Nc1ccnn1C1CCN(C(=O)c2ccoc2)CC1
→ x, x, x, -3.5, -14
> CC1CCN(C(=O)C2CCCN(S(=O)(=O)c3ccc4c(c3)CC(C)N4C(=O)C3CC3)C2)CC1 (stereo not drawn)
→ x, x, x, 2.2, -6
> Cc1ccc(C)c(NS(=O)(=O)c2ccc(OCC(=O)NCC3CCCO3)cc2)c1 (stereo not drawn)
→ x, -3, -2%, 1.0, -10
> COc1ccc(-n2nnnc2Sc2ccc(S(=O)(=O)N3CCOCC3)cn2)cc1
→ x, x, -7%, -0.2, 7
> CCc1noc(N)c1C(=O)Nc1ccc(F)c(Cl)c1
→ -12, -2, 2%, -0.6, -9
> Cc1cc(OCC(=O)Nc2ccncc2)ccc1Cl
→ x, x, x, -0.7, 31
> COc1ccccc1N1CCN(C(=O)c2cc(-c3ccc(F)cc3)on2)CC1
→ x, x, x, 17, -6
> Cc1occc1C(=O)N1CCCC(N2CCN(c3cccc(Cl)c3)CC2)C1 (stereo not drawn)
→ x, x, x, 0.0, 1
> Cc1ccc(O)c(C2=Nc3ccccc3C2(C)C)c1
→ x, -2, 5%, -2.2, -1
> CCc1ccc2[nH]c(=O)c(C3C(C#N)=C(N)Oc4c3ccc3cccnc43)cc2c1 (stereo not drawn)
→ -14, -25, -5%, 13, 10
> CC1CN(c2nc3ccccc3nc2C(C#N)C(=O)NC2CCCCC2)CC(C)O1 (stereo not drawn)
→ x, x, -3%, 3.2, -18
> O=c1c2c3c(sc2nc(N2CCNCC2)n1-c1cccc(Cl)c1)CCCCC3
→ x, x, 75%, -0.8, 97
> CC(C)OCCCN(C)C1CCN(S(=O)(=O)c2csc(C(N)=O)c2)CC1
→ x, x, x, -2.5, -3
> Cc1cc(N2CCOCC2)ncc1[N+](=O)[O-]
→ 8, 11, -5%, 2.9, -5
> CCCCN1CC(=O)N2[C@H](c3ccc(Cl)cc3)[C@@H]3C(=O)N(CC)C(=O)[C@@H]3[C@]2(C)C1=O
→ x, x, x, 1.4, 6
> CCOC(=O)N1CCN(c2c(NCC3CCN(Cc4cccc(C)c4)CC3)c(=O)c2=O)CC1
→ -27, -6, -2%, 1.1, -3
> COC(=O)C1CN(C(=O)COc2ccc(C)c(C)c2)c2ccccc2O1 (stereo not drawn)
→ x, x, x, 0.2, 30
> Cc1cc(NC(=O)CSCc2ccccc2)no1
→ x, 10, 5%, 3.4, 35
> O=C(NCC1CCCN1S(=O)(=O)c1cccs1)c1ccc([N+](=O)[O-])cc1 (stereo not drawn)
→ x, x, x, -3.5, -8
> CC(C)CC1c2[nH]c3ccccc3c2CCN1CCCn1cccn1 (stereo not drawn)
→ x, 5, 0%, -0.7, -5
> CN(C)Cc1c(C(=O)N/N=C/c2cccs2)nnn1-c1nonc1N
→ x, x, x, -1.4, 2
> Fc1ccc(Nc2nc(-c3cccnc3)cs2)cc1
→ x, 1, 3%, 1.8, 0
> COCCN(CC(=O)NC1CCCCC1)C(=O)CSc1nc2ccccc2o1
→ 4, 2, -5%, 1.3, 5
> CCS(=O)(=O)c1ccc(C(=O)Nc2cccc(Cl)c2)c(Cl)c1Cl
→ -31, 11, 7%, 1.2, 2
> Cc1ccc(C(=O)N[C@H](C(=O)Nc2cc(Cl)cc(Cl)c2)C(C)C)cc1
→ -15, -8, -5%, 2.2, -3
> CCc1ccc(Nc2nc(N3CCOCC3)nc(N3CCOCC3)n2)cc1
→ x, x, x, -2.7, 3
> CCOc1ccc(C(O)Cn2c(=N)n(CCN3CCCCC3)c3ccccc32)cc1 (stereo not drawn)
→ -5, -4, 5%, 6.1, 8
> CCCNc1c(NS(=O)(=O)c2ccc(Cl)s2)c(=O)oc2ccccc12
→ x, x, x, -3.0, -5
> COc1ccc(/C=N/NC(=O)c2ccccc2O)cc1Cn1cc(Cl)cn1
→ 10, -4, 0%, -0.7, 68
> CCOC(=O)C(NC(=O)CC)(Nc1sc2c(c1C(=O)OC)CCN(C)C2)C(F)(F)F (stereo not drawn)
→ -12, 1, -7%, -5.5, -3
> CCS(=O)CC(=O)Nc1c(-c2ccccc2)oc2ccccc2c1=O (stereo not drawn)
→ x, x, -6%, 1.3, -8
> Cc1ccsc1/C=N/NC(=O)Cc1cc(=O)[nH][nH]1
→ x, x, -10%, 94*, -2
> Cc1csc(NC(=O)C2CCC(C)(C(=O)O)C2(C)C)n1 (stereo not drawn)
→ -38, 6, 0%, -1.9, -8
> COCC(C)n1c(SCC(=O)Nc2oc(C)c3c(C)n[nH]c(=O)c23)nc2ccccc2c1=O (stereo not drawn)
→ x, x, x, -2.0, 0
> Cc1cccc(-c2nc(CNC(=O)c3ccco3)cs2)c1
→ x, x, x, 2.7, -8
> CCC(=O)c1ccc(OCC(=O)N2CCc3cc(OC)c(OC)cc3C2)cc1
→ -2, -1, 5%, x, 0
> Cc1nn(C)cc1CNC(=O)COc1ccc(Cl)cc1Cl
→ -13, 3, -8%, -0.3, 6
> COc1ccc(C(=O)N[C@H](C(=O)NCc2cccs2)C(C)C)cc1
→ x, 4, 3%, 0.2, -7
> O=C(CCC1CCCC1)N[C@@H](Cc1ccc(O)cc1)C(=O)O
→ x, 6, 3%, 0.2, -6
> CCN1CCN(C(c2cccs2)C(C)NS(=O)(=O)c2ccccc2)CC1 (stereo not drawn)
→ x, 14, 4%, -0.2, -3
> Clc1nc(Oc2ccccc2)nc(-c2cn(-c3ccccc3)c3ccccc23)n1
→ x, x, -6%, 5.5, -3
> c1ccc(Cn2c(-c3ccccc3)nc3nc4ccccc4nc32)cc1
→ -20, -2, 9%, -1.4, -3
> O=C(NCCCN1CCOCC1)c1cc(-c2cccc(Br)c2)nc2ccccc12
→ x, x, x, -0.5, -5
> O=C(N/N=C/c1ccc(OC2CSC2)cc1)c1ccccc1
→ -4, -18, 3%, -5.2, 1
> COc1ccc(-c2ccnc(SCC(=O)c3ccc(Cl)cc3)n2)cc1
→ -8, 20, 0%, 2.4, 1

Continuation:
Order of values: YopH PTP inh, Arbovirus inh, Mtb H37Rv, RecA splice inh, Mtb betalactam
> Cc1csc(/C(=N/OC(=O)c2ccco2)C(N)=O)n1
→ x, x, -5%, 0.1, -1
> Cc1cc(N2C(=O)C(O)=C(C(=O)c3cccs3)C2c2cccc(Br)c2)no1 (stereo not drawn)
→ x, x, -2%, 1.4, 5
> COc1ccc(N2CC(O)(c3ccc(OC(F)F)cc3)[N+]3=C2CCCC3)cc1 (stereo not drawn)
→ x, 1, 1%, -2.5, 6
> CCc1ccccc1NC(=S)NC1CC2CCC(C1)N2Cc1ccco1 (stereo not drawn)
→ -29, 0, 0%, 0.4, 3
> CCOC(=O)CNC(=O)CSc1nnc(CCc2nc3ccccc3[nH]2)n1C
→ x, x, x, -0.8, 2
> CC(C)CC(c1nnnn1C1CCCC1)N1CCN(c2ccccc2F)CC1 (stereo not drawn)
→ -162, 6, 3%, 11, -6
> CCN(CC)CCCNC(=O)c1sc2nc(-c3ccc(F)cc3)cn2c1C
→ -8, -39, -11%, -0.8, -11
> Cc1ccnc(SCCn2c(Br)nc3c2c(=O)[nH]c(=O)n3C)n1
→ x, x, -5%, 0.8, -8
> CC(=NCc1ccc2c(c1)OCO2)C1=C(O)c2ccccc2C1=O
→ 4, -36, u, -1.4, -4
> O=C(Nc1ccc2nn(-c3ccccc3)nc2c1)c1cccnc1
→ 3, 9, 18%, 4.2, -1
> CCOC(=O)c1sc(NS(=O)(=O)c2cc(C)ccc2C)nc1C
→ -14, 2, -8%, 1.2, -8
> CCCCc1cc(=O)oc2cc(OCC(=O)NC(Cc3c[nH]c4ccc(O)cc34)C(=O)O)ccc12 (stereo not drawn)
→ x, x, x, -3.9, -3
> COC(=O)C1=CO[C@@H](C)[C@@H]2CN(CCc3c[nH]c4ccccc34)CC[C@H]12
→ x, x, -14%, 1.5, -10
